Bioassay records as filed in PubChem BioAssay.
Biofilm kill mix – clotrimazole potentiators killing C. albicans biofilm, primary screen, 4-compound mixtures; C. albicans biofilm persisters + clotrimazole, fluorescence viability; primary screen in compound mixtures of four per well; inhibition, % at 7.6 µM; 0.02% of 120,000 active;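 active = inhibition above 30.3% in the primary screen of four-compound pools, then above 30% when the compound was retested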;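 also: compounds exposed to preformed 24 h biofilms for 48 h; the number belongs to the whole pool; some results filed as inactive read as strong as hits; inactives centre near 12; 0% = biofilm with clotrimazole alone and 100% = kill control; retested singly at about 60 µM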
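Probe or stimulus – Clotrimazole 50 µg/mL co-treatment · System – C. albicans biofilms · Schedule – 24 h biofilm formation, then 48 h compound exposure, 37 °C · Evaluation – percent inhibition of biofilm viability · Technique – 2-h Alamar Blue fluorescence, 535/590 nm excitation/emission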
* marks the source's active call; other numbers are inactive results. Not all compounds are listed, so the mix of outcomes need not match the whole.

SMILES	Biofilm kill mix
COc1cccc(CNC(=O)CCC2CCCN(C(=O)c3cscn3)C2)c1 (centres undefined)	30
CCOC(=O)c1[nH]c(C)c(CC(C)C)c1C	-2
c1csc(-c2nc3c4ccccc4c4ccccc4c3[nH]2)c1	13
CCCn1c(SCC(=O)NC2CCCC2)nnc1-c1ccccn1	45
CCOC(=O)Cn1nc(C)cc1NC(=O)c1ccncc1	12
N/C(=N\c1nc(CSc2nnnn2-c2ccccc2)cc(=O)[nH]1)Nc1ccccc1	14
Cc1cc(C)c(S(=O)(=O)Nc2cccc(S(=O)(=O)NC3=NCCC3)c2)c(C)c1	1
N#CCCN(C(=O)CCl)c1cccc(Cl)c1	15
C=CCn1c(-c2cccc(OC)c2OC)n[nH]c1=S	8
COc1ccc(-c2csc(NC(=O)c3ccccc3C(=O)O)n2)cc1	11
Cc1ccc(F)cc1NC(=O)c1cnccn1	14
CC1(C)Cc2nc3oc4c(=O)n(CC(=O)Nc5cccc(Cl)c5)cnc4c3cc2CO1	16
CCC(=O)c1ccc(NC(C)=O)cc1O	6
C#CCSc1nnnn1-c1ccc(OCC)cc1	18
O=C(CSc1nc2ccccc2[nH]1)Nc1cccc(S(=O)(=O)N2CCOCC2)c1	12
CSc1nnc(NC(=O)c2ccc(S(=O)(=O)N(C)C)cc2)s1	16
COc1cc(OC)cc(N(C(=O)CNC(=O)c2cccs2)C(C(=O)NCC2CCCO2)c2ccc(OC)c(OC)c2)c1 (centres undefined)	8
COc1cc(NC(=S)N2CCN(C(=O)C3CCCO3)CC2)c(OC)cc1Cl (centres undefined)	23
O=C(Cn1nc(C(F)F)cc1C(F)F)NNC(=S)Nc1ccc([N+](=O)[O-])cc1	3
Cc1ccc(S(=O)(=O)N2CCC(C(=O)C3C(=O)CC(C)(C)CC3=O)CC2)cc1	4
CCCn1c(SC(C(=O)Nc2cccc(OC)c2)c2ccccc2)nc2ccccc2c1=O (centres undefined)	5
COc1nc(/C=C/N(C)C)c([N+](=O)[O-])c(OC)n1	3
CCOC(=O)c1c(NC(=O)CSc2cn(CC)c3ccccc23)sc2c1CCC2	11
O=C(NCc1cccnc1)c1ccccc1CCc1ccccc1	15
O=C(CNCc1ccccn1)Nc1cc(S(=O)(=O)N2CCCCC2)ccc1Cl	13
(list continues)
SMILES	Biofilm kill mix
Cc1csc(NC(=O)CS(=O)(=O)c2ccccc2)n1	9
Cc1cccc(/N=C/c2c(C)[nH]n(-c3ccccc3)c2=O)n1	21
COc1ccc(/C=C/C(=O)Nc2c(C)nn(C)c2C)cc1COc1ccc(Cl)cc1Br	22
S=C(Nc1cccc(Cl)c1)Nc1cccc2cnccc12	27
O=C(NC1CC2CCCC(C1)N2Cc1ccccc1)C1CCCCC1 (centres undefined)	12
O=C(COc1cccc(Cl)c1)NNC(=S)Nc1ccccc1	22
Cc1[nH]n(-c2ccccc2)c(=O)c1/C=N/NC(=O)COc1ccccc1[N+](=O)[O-]	18
Cc1ccc2nc(-c3cccc(Br)c3)cc(C(=O)Nn3cnnc3)c2c1	12
Cc1ccc(-c2nc(-c3cccnc3)sc2CC(=O)Nc2ccc(C)c(Cl)c2)cc1	9
Cn1c(=O)c2c(ncn2CC(=O)Nc2nccs2)n(C)c1=O	14
CC(c1nccs1)N(C)C(=O)CCc1nnc(-c2ccc(-c3ccccc3)cc2)o1 (centres undefined)	9
S=c1[nH]nc(COc2ccccc2)n1/N=C/c1ccco1	14
COc1ccc(OC)c(NC(=O)c2ccc3c(=O)n(CCc4ccccc4)c(=S)[nH]c3c2)c1	25
CC(=O)c1ccc(C(=O)N2CCCC(CCC(=O)N(C)CCc3ccccn3)C2)s1 (centres undefined)	1
O=S(=O)(NCc1ccccc1)c1ccc(S(=O)(=O)N(Cc2ccccn2)C2CCCC2)cc1	10
COc1ccc(CNC(=S)Nc2ccc(OC)cc2)cc1	7
COc1cc(CNCCN(C)C)c(Br)cc1OCC(=O)NCc1ccccc1	7
CCO[C@@H]1OC(C(=O)N2CCOCC2)=C[C@H](c2ccccc2)[C@H]1CCCO	15
COC(=O)/C(=C/c1ccccc1)NC(=O)c1ccco1	16
COc1cc(OC)cc(C(=O)Nc2c(C)nn(-c3ccccc3)c2C)c1	12
O=C(NCCOc1ccccc1Cl)C(=O)c1c[nH]c2ccccc12	10
CC1CCN(C(=O)c2ccc(SCc3ccccc3F)c([N+](=O)[O-])c2)CC1	12
CCOC(=O)C1(CCc2ccccc2)CCN(Cc2nccn2CC)CC1	15
Cc1cccc(OCc2n[nH]c(=S)n2Cc2ccccc2)c1	6
Cc1cc(C)n2cc(CSc3ccc(Br)cc3)nc2n1	5
Remaining list, next part:
SMILES	Biofilm kill mix
CCCCC1NC(C(=O)O)CS1 (centres undefined)	10
CC1=CC2=NC(=O)/C(=C\c3cc(C)n(-c4cccc(Cl)c4)c3C)C(=N)N2O1	22
Cc1ccc(SC[C@H](Cc2ccccc2)N2CCN(CC(C)C)CCC2=O)cc1	11
CN(C)/C=C1\Cc2ccccc2C1=O	26
O=C(NC1(C(F)(F)F)NC(=O)N(c2ccccc2)C1=O)c1cccs1 (centres undefined)	14
Cc1ccc(F)c([C@H]2C3C=CCC(c4ccccc4)C3C(=O)N2Cc2ccccc2)c1 (some centres undefined)	11
O=C(c1ccc(C(F)(F)F)cc1)n1ccc(-c2cccs2)n1	22
Cc1nc2ccccn2c1C(=O)OCC#N	7
COc1ccccc1C(=O)/C=C/c1ccc(N2CCCCC2)c([N+](=O)[O-])c1	7
O=C1C2C3C=CC(C4CC34)C2C(=O)N1Cc1ccco1 (centres undefined)	7
Oc1ccc(Cl)cc1C=Nc1ccc2c3c(cccc13)CC2	14
CCOc1ccc(N(C(=O)c2cc3ccccc3oc2=O)C2C=CS(=O)(=O)C2)cc1 (centres undefined)	16
O=[N+]([O-])c1ccc(-c2csc(Nc3ccccc3)[n+]2Cc2ccccc2)cc1	-12
C=C(C)[C@@H]1CCC2(C(=O)O)CC[C@]3(C)[C@H](CC[C@@H]4[C@@]5(C)CCC(=O)C(C)(C)[C@@H]5CC[C@]43C)[C@@H]12 (some centres undefined)	19
COc1cccc(NC(C)(C)c2nnnn2-c2c(C)cccc2C)c1	2
Cc1ccccc1Nc1nnc(SCC(=O)NC2CCCc3ccccc32)s1 (centres undefined)	-5
O=C(CNCCO)Nc1ccc(F)c(Cl)c1	14
O=C(O)c1cc(-c2ccc(/C=C3\NC(=O)N(c4ccccc4)C3=O)o2)ccc1Cl	13
CCOC(=O)c1c(C)[nH]c(C(=O)N2CCCC(C(=O)c3ccccc3OC)C2)c1C (centres undefined)	25
Cc1ncc(C[n+]2csc(CCOC(=O)CC34CC5CC(CC(C5)C3)C4)c2C)c(N)n1	21
Cc1nc2c(-c3ccc(F)cc3)c(C)nn2c(C)c1CCC(=O)Nc1ccccc1F	14
COc1ccccc1CNC(=O)CSc1ccc(-c2cccs2)nn1	10
O=C1C(=O)N(O)C2CCCCC2N1O (centres undefined)	8
COC(=O)c1cc(Cl)c(NC(=O)C(C)C)cc1OC	16
CCOC(=O)c1c(C)nc(C)c(C(=O)OCC)c1-c1ccco1	26

Part of the list above, with bars between the fields.
molecule | Biofilm kill mix
Cc1nc2ccccn2c1C(=O)OCC#N | 7
COc1ccccc1C(=O)/C=C/c1ccc(N2CCCCC2)c([N+](=O)[O-])c1 | 7

Exported with bars between the fields: 6 of the compounds above
smiles | Biofilm kill mix
O=[N+]([O-])c1ccc(-c2csc(Nc3ccccc3)[n+]2Cc2ccccc2)cc1 | -12
CN(C)/C=C1\Cc2ccccc2C1=O | 26
COc1cccc(NC(C)(C)c2nnnn2-c2c(C)cccc2C)c1 | 2
O=C(NC1(C(F)(F)F)NC(=O)N(c2ccccc2)C1=O)c1cccs1 (centres undefined) | 14
CC(c1nccs1)N(C)C(=O)CCc1nnc(-c2ccc(-c3ccccc3)cc2)o1 (centres undefined) | 9
O=S(=O)(NCc1ccccc1)c1ccc(S(=O)(=O)N(Cc2ccccn2)C2CCCC2)cc1 | 10

Returning to the listing; the 4 compounds before the break are reprinted first.
SMILES	Biofilm kill mix
COc1ccccc1CNC(=O)CSc1ccc(-c2cccs2)nn1	10
O=C1C(=O)N(O)C2CCCCC2N1O (centres undefined)	8
COC(=O)c1cc(Cl)c(NC(=O)C(C)C)cc1OC	16
CCOC(=O)c1c(C)nc(C)c(C(=O)OCC)c1-c1ccco1	26
O=C(N=Nc1c(O)[nH]c2ccc(F)cc12)C1COc2ccccc2O1 (centres undefined)	8
C/C=C/c1ccc(OCC(O)CN2CCCCC2CC)c(OC)c1 (centres undefined)	14
COc1ccccc1NC(=S)N1CC(C)OC(C)C1 (centres undefined)	7
O=C(CCCSc1nc2ccccc2[nH]1)NCc1ccccc1	17
COCCn1c(=O)[nH]c(=O)c2c1nc(-c1cc(Br)c3c(c1)OCO3)n2Cc1ccccc1	14
N#C/C(=C(/O)c1ccccc1F)c1nc2cc(C(F)(F)F)ccc2s1	10
CC(C)(C)C(=O)Nc1nc2ccc(S(C)(=O)=O)cc2s1	5
CC(=O)Nc1ccc(NC(=O)COc2ccccc2C(=O)Nc2cccc(Cl)c2Cl)cc1	13
NS(=O)(=O)c1ccc(NN=C2CCN(Cc3ccccc3)CC2)c([N+](=O)[O-])c1	21
Cc1cccn2c(CN(C)CC3Cc4ccccc4O3)c(C(=O)N3CCCCC3)nc12 (centres undefined)	8
CC(C)(C)c1ccc(C(=O)NCC(=O)OCc2ccc([N+](=O)[O-])cc2)cc1	28
O=C1/C(=C\c2ccc(O)cc2)SC(=S)N1/N=C/c1ccc(O)cc1	15
N#Cc1ncc(Cl)c2ccccc12	21
Cc1ccc(C(=O)O/N=C(\N)c2nonc2N)cc1	13
O=C(CCSc1ccccn1)Nc1ccc(Br)cc1	21
COc1c(Cl)ccc(Cl)c1C(=O)NC(=S)N1CCOCC1	9
COc1ccc(OC)c(CC(NC(C)=O)C(=O)NC2CCN(c3cc(C)nc4ncnn34)CC2)c1 (centres undefined)	5
COc1cccc(NC(=O)CSc2nnc(Cn3cnc([N+](=O)[O-])n3)n2C)c1	12
O=C(CSc1ccc(-c2ccccc2)nn1)NCc1ccco1	4
CO/N=C/c1ccc(Oc2ccc([N+](=O)[O-])cc2[N+](=O)[O-])c(OC)c1	12
COc1cc(C(=O)Nc2cccc(C(C)=O)c2)cc(OC)c1OC	0
Cc1cccc(NC(=O)N2CCN(Cc3ccc(Cl)cc3)CC2)c1	11
CC(=O)Nc1ccc(N=Nc2ccc(O)cc2)cc1	-4
COC(=O)c1sc2nc(SCc3cccc(Cl)c3)n(N)c(=O)c2c1C	7
Cc1ccc(Nc2nc(NCC3CCCO3)nc(N)c2[N+](=O)[O-])cc1 (centres undefined)	16
(listing goes on)
SMILES	Biofilm kill mix
CCn1cc(C(=O)O)c(=O)c2cc(F)c(N3CCN(C(=S)NC(=O)c4cccc(C)c4)CC3)cc21	24
CC1CCc2sc(C(=O)NN)cc2C1 (centres undefined)	16
Cc1cc2oc(C(=O)Nc3c(C)n(C)n(-c4ccccc4)c3=O)c(C)c2cc1Cl	3
Cc1ccccc1-n1c([C@@H]2C[C@H]2c2ccccc2)n[nH]c1=S	19
O=c1[nH]c(=S)n(-c2cccc(Cl)c2)c(O)c1/C=N/N1CCOCC1	19
CC1(C)CC(=O)c2cnc(NC(=O)CSc3nc4ccccc4o3)nc2C1	7
CCCCn1c(SCN2C(=O)c3ccccc3C2=O)nc2cc(S(N)(=O)=O)ccc21	8
Clc1ccc(-c2cn3c(n2)-c2ccccc2C3)cc1Cl	13
Cc1cc2ncn(CC(C)C)c2cc1C	-6
O=C(NNC(=O)[C@H]1CC=CC[C@H]1C(=O)O)c1ccc(Cl)cc1Cl	10
COc1ccc(/C=C/c2nnc(NC(=O)c3ccco3)s2)cc1	20
O=C(/C=C/c1ccccc1)NC(=S)NNC(=O)c1cnccn1	27
COc1ccc(C2c3[nH]c4ccccc4c3CCN2Cc2ccoc2)c(F)c1 (centres undefined)	15
O=C(c1cccnc1Cl)N(Cc1ccccc1)Cc1ccccc1	18
CC/C(=N\Nc1ccccc1[N+](=O)[O-])c1ccc(O)cc1	-4
CCC(C)C(=O)Nn1c(C2CC2)nc2cc(OC)c(OC)cc2c1=O (centres undefined)	5
O=C(CCC(=O)N(CC(=O)NC1CCCCC1)c1ccc2c(c1)OCCO2)Nc1ccccn1	20
Cc1cc2[nH]c3ccccc3c2c(C)n1	6
O=C(CSc1ncccn1)N1CCc2ccccc2C1	22
CCOC(=O)c1sc(NC(=O)/C=C/c2ccccc2)nc1C	12
O=C(c1ccco1)N1CCN(C(=O)C(c2ccccc2)c2ccccc2)CC1	6
COc1ccc(N=C2CC(C)(C)CC(=O)/C2=C(/O)c2ccccc2)cc1	3
COc1cc(NC(=O)Nc2cccc([N+](=O)[O-])c2)cc(OC)c1	6
Cn1ncc([N+](=O)[O-])c1C(=O)N/N=C/c1ccc(F)cc1	19
COc1ccc(NC(=O)Cn2nnc3sc4c(c3c2=O)CC(C)(C)OC4)cc1	18
(listing goes on)
SMILES	Biofilm kill mix
N#C/C(=C\c1ccc(Cl)cc1)c1nc(-c2ccco2)cs1	14
O=C(O)C(Cc1ccccc1)N1C(=O)C2CCCCC2C1=O (centres undefined)	25
Cc1ccc(S(=O)(=O)Nc2ccc(NC(=O)/C=C/C(=O)O)cc2)cc1	18
O=C(NCc1ccc(Cl)cc1)c1ccc(N2CCCC2=O)cc1	12
COc1cc(C)c(Cl)cc1S(=O)(=O)NC1CC(C)(C)NC(C)(C)C1	6
O=C(Cn1c(=S)[nH]c2ccccc2c1=O)N1CCc2ccccc2C1	18
NC(=O)C1CCN(c2ncccc2[N+](=O)[O-])CC1	4
CCN(CC)c1ccc(/C=N/NC(=O)c2cccc(S(=O)(=O)Nc3ccccc3OC)c2)c(O)c1	6
CC1(OC(=O)CCc2ccccc2)C(=O)C=C2C=C3CCCN3C=C2C1=O (centres undefined)	16
